RecA splice inh: Mtb RecA intein splicing inhibitors, primary screen, biochemical, fluorescence, HTS. cell-free RecA intein splicing. inhibition, %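 (about 9 µM by stock and volumes)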. actives 0.75% (n = 290,000); in the data active means inhibition above about 30%; inconclusive means no clear call, values can overlap the other calls;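 further: 0% = vehicle wells and 100% = reference inhibitor control wells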
Target sequence (P9WHJ3 whole entry, looked up, canonical isoform): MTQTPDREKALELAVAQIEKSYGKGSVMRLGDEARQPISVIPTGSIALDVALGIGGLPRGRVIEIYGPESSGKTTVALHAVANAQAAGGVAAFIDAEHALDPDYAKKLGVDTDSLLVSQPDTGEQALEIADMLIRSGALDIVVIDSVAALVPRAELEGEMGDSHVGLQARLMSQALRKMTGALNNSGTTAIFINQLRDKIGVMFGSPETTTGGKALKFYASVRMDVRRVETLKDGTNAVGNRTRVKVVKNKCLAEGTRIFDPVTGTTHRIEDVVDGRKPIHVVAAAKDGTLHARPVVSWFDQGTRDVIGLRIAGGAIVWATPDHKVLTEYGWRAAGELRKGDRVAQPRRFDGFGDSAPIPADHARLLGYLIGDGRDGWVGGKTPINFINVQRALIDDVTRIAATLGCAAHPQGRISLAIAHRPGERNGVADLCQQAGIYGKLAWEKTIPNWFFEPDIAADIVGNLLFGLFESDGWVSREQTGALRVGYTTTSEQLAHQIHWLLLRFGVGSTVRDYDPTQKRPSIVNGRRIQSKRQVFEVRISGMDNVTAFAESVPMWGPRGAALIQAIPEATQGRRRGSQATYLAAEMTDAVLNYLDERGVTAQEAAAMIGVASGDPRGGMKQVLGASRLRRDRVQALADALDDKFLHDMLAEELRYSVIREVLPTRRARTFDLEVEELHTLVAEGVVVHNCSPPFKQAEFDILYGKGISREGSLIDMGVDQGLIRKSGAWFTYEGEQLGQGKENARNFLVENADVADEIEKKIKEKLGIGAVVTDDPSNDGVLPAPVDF
YopH PTP inh: YopH tyrosine phosphatase inhibitors, primary screen, biochemical, fluorescence Ex485/Em525. actives 0.16% (n = 140,000). inhibition, %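 (about 10 µM by stock and volumes)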. YopH tyrosine phosphatase [Yersinia enterocolitica]. AID 898, 2007;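 active means inhibition of 50% or more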;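 further: controls were vehicle for no effect and minimum signal wells for full effect; inactives centre near -20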
Mtb betalactam: beta-lactam sensitization of Mtb H37Rv, H37Rv; actives 0.27% (n = 330,000); inhibition, % at 25 µM; M. tuberculosis H37Rv growth with meropenem, percent inhibition; hits of this screen are not shown here; AID 434955, 2010;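 active means about 74% or more and at least 40 points above the plate without the antibiotic, then above 30% in a dose series; inconclusive means first-round hits that could not be retested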;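 further: growth measured after seven days incubation then overnight dye step; 0% = bacteria only wells and 100% = bacteria with antibiotic; twin plates without the antibiotic show which effects depend on it; some results filed as inactive read as strong as hits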
Mtb H37Rv: M. tuberculosis H37Rv growth inhibitors, H37Rv strain (AID 1626) | M. tuberculosis H37Rv growth inhibition; higher % means a stronger effect | inhibition, % at 10 µM; hits with a dose series show IC50 in µM | actives 0.95% (n = 220,000);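 active means confirmed in a dose series; inconclusive means inhibition above 80% but not taken into the dose series; inactive means below 80% or under 30% at every dose of the series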;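 further: bacteria incubated seven days before Alamar blue readout; 0% = bacteria only wells and 100% = bacteria with antibiotic wells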
Arbovirus inh: antivirals against arbovirus infection, primary screen, cell-based, full library, 10K replicate subset | AID 1251, 2008 | arbovirus infection cell-based antiviral screen | actives 0.37% (n = 200,000) | inhibition, % at 10 µM;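 active means inhibition from about 30%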;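 further: bluetongue infection of BSR cells; cell survival read as ATP light after 72 h; 0% = infected wells without compound and 100% = uninfected wells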
Arbovirus inh repeat: second read-out of Arbovirus inh, no call of its own (marks repeat the call); inhibition, %; measured here: 10K subset replicate screen; many hits read low in the repeat;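 first of two repeat runs on a subset; 0% = infected and 100% = uninfected wells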
An asterisk follows results filed as active; u = inconclusive; x = no result given. Not all compounds are listed, so the mix of outcomes need not match the whole.

SMILES | RecA splice inh | YopH PTP inh | Mtb betalactam | Mtb H37Rv | Arbovirus inh | others
CC1CN(C(=O)c2ccccc2Nc2ccc(SC(F)F)cc2)CC(C)O1 (configuration not stated) | -3.3 | x | -5.5 | 0.3% | -7.2
COC(=O)C1CCN(CC(=O)Nc2sc3c(c2C#N)CCC3)CC1 | -4.0 | -15.7 | -6.3 | -5.3% | 3.4
CC(=O)N1N=C(c2ccc3nccnc3c2)CC1c1ccccc1 (configuration not stated) | -0.7 | -35.6 | -10.8 | 2.6% | 1.0
O=C(Nc1ccc(Cc2ccncc2)cc1)c1cc([N+](=O)[O-])ccc1N1CCOCC1 | -5.5 | x | -7.2 | -4.2% | 0.1
COc1ccc(CNC(=O)CC2Sc3ccccc3NC2=O)cc1 (configuration not stated) | -2.4 | x | -2.4 | 3.5% | -11.6
Cc1ccc(-c2nc3c(c(=O)[nH]c(=O)n3Cc3ccccc3)n2Cc2ccccc2)o1 | 0.9 | x | x | -6.5% | -3.1
CC(C)Cc1ccc(C2=CSC3=NCCN23)cc1 | 0.9 | x | -4.5 | x | x
Nc1nnc(SCC(=O)Nc2ccc(S(=O)(=O)N3CCOCC3)cc2)s1 | -0.7 | -10.8 | -4.3 | -4.2% | 7.6
CC(C)=C(NC(=O)c1ccccc1)C(=O)Nc1ccc(C(=O)O)cc1 | 0.6 | x | -8.0 | 1.1% | x
Cc1ccn2c(CNCCn3nc(C)cc3C)c(C(=O)N3CCCCCC3)nc2c1 | 4.9 | x | 90.8 | -1.4% | -0.8
O=C(O)CSc1ncnc2sc(-c3ccccc3)cc12 | 0.3 | x | -5.3 | -2.6% | 3.9
CCC(C)Sc1ccc([C@H]2N[C@@](CC(C)C)(C(=O)OC)[C@H]3C(=O)N(C)C(=O)[C@@H]23)cc1 (some centres not stated) | 4.6 | x | -11.4 | x | x
CCOc1ccc(C(=O)N/N=C(\c2ccccc2)c2ccccn2)cc1 | 2.1 | -9.2 | 97.7 | u | -25.4
CCOC(=O)C1CCN(c2ncnc3c(C)csc23)CC1 | 0.4 | x | -5.7 | 2.9% | x
CCC/C(O)=C1\C(=O)CCCC1=NCCc1c(C)[nH]c2ccc(C)cc12 | -2.8 | x | 5.6 | >100µM* | x
CC(C)c1c(C(=O)N/N=C/c2cccc3ccccc23)nnn1-c1nonc1N | 6.2 | x | 3.0 | x | x
COc1ccc(CCNC(=O)C(=O)NCc2ccc(Cl)cc2)cc1OC | 4.9 | x | 13.1 | 2.5% | -0.6
O=C(Nc1ccc2c(c1)OCCO2)C1CCN(S(=O)(=O)c2cccs2)CC1 | 3.1 | -21.5 | -6.4 | 2.4% | 2.3
CCCn1c(C2CCCN2c2nc(-c3ccc(C)cc3)cs2)nc2cc(Cl)c(N3CCCCC3)cc21 (configuration not stated) | 0.5 | x | -4.3 | x | x
Cc1cc(NCc2ccccc2)n2ncnc2n1 | -0.4 | x | -1.6 | -2.4% | -5.8
Cc1ccc(C(=O)CSc2nnc(CNc3nc(-c4ccccc4)cs3)n2C)cc1 | 1.5 | -39.4 | 3.5 | 8.3% | -1.8
Nc1oc2ccccc2c1C(=O)Cc1ccccc1O[C@@H]1O[C@H](CO)[C@@H](O)[C@H](O)[C@H]1O | -2.1 | x | -3.4 | x | x
COc1ccc(-c2csc3ncnc(N4CCN(CCO)CC4)c23)cc1 | -1.0 | x | 0.6 | x | x
COc1ccc(-n2c(-c3cccc(OC)c3)nc(=S)c3c2CCCC3)cc1 | 6.0 | -25.8 | 1.2 | -4.1% | 0.6
NC(=O)CSc1nnc(-c2ccccn2)n1N | -0.2 | x | -2.8 | -4.2% | x
COc1ccc(S(=O)(=O)N2C3CCC2CC(NC(=O)C2CC2)C3)cc1 (configuration not stated) | -0.9 | -42.8 | -0.3 | 3.2% | 4.3
O=C(Cc1ccc(Cl)cc1)Nc1ccccn1 | -1.3 | x | 0.6 | x | x
COc1cccc(C2c3[nH]c4ccccc4c3CCN2Cc2cccn2-c2ncccn2)c1 (configuration not stated) | x | x | 8.2 | 1.7% | 6.3
COc1cccc(N2CCN(c3ncnc4c3[nH]c3ccc(F)cc34)CC2C)c1 (configuration not stated) | 16.8 | -9.1 | 99.7 | u | -46.6
CC(=O)Nc1ccc(S(=O)(=O)N(C)CC(=O)OC(C)C(=O)N(C)Cc2ccccc2)cc1 (configuration not stated) | -1.5 | x | -10.2 | x | x
O=C(CCCc1ccccc1)c1ccc2c(c1)OCCO2 | 13.7 | -4.3 | 4.5 | 10.2% | -11.1
CCN(CC)c1ccc(CNC(=O)C/C(C)=N/NC(=O)COc2ccc(C)cc2Br)cc1 | 5.3 | x | -4.3 | x | x
CCCN(C(=O)c1ccccc1N)c1c(C)n(C)n(-c2ccccc2)c1=O | 0.3 | -20.6 | -4.2 | 1.4% | -1.4
CC(=O)Nc1c(O)nc(SCc2ccc(Cl)cc2)[nH]c1=O | -9.9 | -16.6 | 5.7 | -12.3% | 0.3
Cc1ccc(-c2noc(CN(C(=O)c3cccc(Br)c3)C(C)C)n2)cc1 | -1.1 | -3.0 | 1.0 | 8.0% | 18.8 | Arbovirus inh repeat=4.2
CCOC(=O)C(C)Oc1c(Br)cc(C2NC(=O)NC(C)=C2C(C)=O)cc1OCC (configuration not stated) | 1.2 | -15.4 | -3.8 | 5.0% | -5.8
CCCn1c(=N)n(CC(O)COc2cccc(C)c2)c2ccccc21 (configuration not stated) | -0.2 | -25.7 | -14.0 | 4.2% | -11.9
CC(C(=O)N=c1sc2ccccc2n1C)N1C(=O)C2CC=CCC2C1=O (configuration not stated) | -3.7 | -25.2 | 9.4 | -9.5% | 2.2
Cc1ccccc1-c1cc(-c2ccccc2O)on1 | 12.1 | -28.5 | 64.2 | 6.1% | -12.1
CC1CCCC(C)N1CCCNC(=O)Cn1c(=O)c2cccn2c2cccnc21 (configuration not stated) | 2.1 | x | 1.8 | x | x
O=C1CCC([N+](=O)[O-])C(c2cc3c(cc2Br)OCO3)N1 (configuration not stated) | 10.3 | -3.4 | 0.3 | -6.1% | -4.3
COc1ccc(CNC(=O)C(C)OC(=O)c2cccn2C)cc1 (configuration not stated) | x | -22.1 | -0.9 | -8.5% | 1.6
Cc1ccc(/C=N/N=C2/NC(=O)CS2)o1 | 0.1 | x | 0.0 | -11.6% | 3.2
CCN1CCN(CCNC(=O)CSCc2nc(-c3ccc(OC)c(OC)c3)oc2C)CC1 | 0.5 | -16.0 | -3.5 | -8.3% | 5.5
NS(=O)(=O)c1ccc(NC(=O)CSc2nnc(-c3cnccn3)n2-c2ccccc2)cc1 | -2.6 | -13.5 | -16.1 | -5.0% | -3.0
CC(=O)OC(C#CCN1CCOCC1)c1ccccc1 (configuration not stated) | -2.0 | 1.0 | 0.3 | -4.4% | 10.9
O=C(NCCN1C(=O)S/C(=C\c2ccc(Cl)cc2)C1=O)c1ccc(F)c(S(=O)(=O)N2CCOCC2)c1 | 2.0 | -10.3 | 2.2 | -3.0% | 4.4
O=C(CN1CCC(NC(=O)C2CC2)CC1)Nc1ccccc1[N+](=O)[O-] | 1.7 | x | -2.1 | x | x
CC(C)N1CCN(Cc2ccc3nsnc3c2)CC1CCO (configuration not stated) | 0.9 | x | 1.2 | -2.5% | -4.3
COc1ccc(NC(=O)CSc2nc3c(c(=O)n2-c2ccc(C)cc2)SCC3)c(OC)c1 | -1.6 | -23.5 | 0.3 | 0.7% | -0.7
O=c1c2c3c(sc2nc(NCCO)n1Cc1ccco1)CCCCC3 | 1.6 | 1.4 | 77.3 | 5.9% | -10.1
Cc1ccc2c(cnn2C(=O)CCCC(=O)NC(C)c2ccccc2)c1 (configuration not stated) | 2.1 | x | -5.1 | x | x
C=CCn1cc(/C=N/Nc2nc3ccccc3[nH]2)c2ccccc21 | 26.4 | -48.2 | 91.3 | u | -44.2
Cc1c(CCOC(=O)c2ccccc2)sc[n+]1CC(=O)c1ccc(Br)cc1 | 8.4 | x | 3.8 | x | x
Cc1nsc(Nc2ccccc2)c1C#N | -0.8 | x | -4.7 | 4.7% | 1.7
O=C(Nc1nc2ccc(F)cc2s1)C1CCN(S(=O)(=O)c2cc([N+](=O)[O-])ccc2Cl)CC1 | 3.6 | -9.2 | 100.0 | u | -5.5
COc1ccc(-n2nc(C(=O)NCc3ccco3)c3c4ccccc4n(C)c3c2=O)cc1 | -1.2 | -28.9 | 1.8 | -2.6% | -6.1
CS(=O)(=O)c1ccc(Cl)c(NC(=O)COC(=O)c2cccc(S(=O)(=O)N3CCCCC3)c2)c1 | 0.2 | x | 0.1 | x | x
O=C(Cc1ccccc1)N/N=C/c1cc2c(cc1Cl)OCO2 | -2.4 | -38.7 | 1.3 | 0.0% | 3.4
Cc1cc(C)n(CC(=O)Nc2ccccc2)n1 | -0.6 | -15.0 | 1.7 | -7.1% | 0.7

Continuation:
SMILES | RecA splice inh | YopH PTP inh | Mtb betalactam | Mtb H37Rv | Arbovirus inh | others
N#C/C(=C\c1ccc(-c2ccc(Br)cc2)o1)C(=O)NCCc1c[nH]c2ccccc12 | 1.5 | -21.0 | 94.8 | u | -26.2
COc1ccc(/C=N/NC(=O)c2cc(-c3ccccc3OC(C)C)nc3ccccc23)cc1CN1CCOCC1 | 5.0 | -9.0 | -1.3 | -4.7% | 11.2
CC(/C=C/c1ccco1)=N\NC(=O)CNc1cccc(C)c1 | -3.2 | x | -2.1 | -4.5% | -1.6
CN1CCc2c(sc3c2c(=O)n(-c2ccccc2)c2n[nH]c(=S)n32)C1 | 2.1 | -15.9 | 2.6 | -8.6% | 6.2
Cc1ccc(S(=O)(=O)c2c(C)nn(C(C)(C)C)c2OC(=O)c2ccco2)cc1 | -3.2 | -46.7 | 4.4 | 4.2% | -3.4
CC1(C)OC(c2ccccc2)=C/C(=C/C=Nc2ccccc2)O1 | -19.1 | -25.3 | 13.0 | -2.8% | 12.1
O=C(C[N+]12CCN(CC1)CC2)NCCc1ccc(Cl)cc1Cl | -0.7 | x | -7.0 | -8.1% | 24.4
COc1cc(C(c2sc3nc(C)nn3c2O)N2CCc3ccccc3C2)cc(OC)c1OC (configuration not stated) | 13.8 | -12.3 | 2.0 | 0.5% | 0.1 | Arbovirus inh repeat=0.1
COc1ccc(-c2csc3ncnc(NCCCO)c23)cc1 | -0.9 | x | -1.6 | x | x
O=C(c1c(F)c(F)c(F)c(F)c1F)N(Cc1ccccc1)Cc1ccccc1 | 23.2 | -30.1 | -4.8 | -4.3% | 9.0
CCOC(=O)C(NC(=O)CC)(Nc1ccc(C(O)(C(=O)OCC)C(F)(F)F)cc1C)C(F)(F)F (configuration not stated) | -1.0 | -22.3 | -8.6 | -6.2% | 3.8
O=C(CCSc1nnc(-c2ccncc2)o1)Nc1ccccc1 | 1.1 | 1.2 | u | -3.9% | -0.3

Structural class: the entries above containing a thiophene ring, fused or not.
SMILES | RecA splice inh | YopH PTP inh | Mtb betalactam | Mtb H37Rv | Arbovirus inh | others
COC(=O)C1CCN(CC(=O)Nc2sc3c(c2C#N)CCC3)CC1 | -4.0 | -15.7 | -6.3 | -5.3% | 3.4
O=C(O)CSc1ncnc2sc(-c3ccccc3)cc12 | 0.3 | x | -5.3 | -2.6% | 3.9
CCOC(=O)C1CCN(c2ncnc3c(C)csc23)CC1 | 0.4 | x | -5.7 | 2.9% | x
O=C(Nc1ccc2c(c1)OCCO2)C1CCN(S(=O)(=O)c2cccs2)CC1 | 3.1 | -21.5 | -6.4 | 2.4% | 2.3
COc1ccc(-c2csc3ncnc(N4CCN(CCO)CC4)c23)cc1 | -1.0 | x | 0.6 | x | x
O=c1c2c3c(sc2nc(NCCO)n1Cc1ccco1)CCCCC3 | 1.6 | 1.4 | 77.3 | 5.9% | -10.1
CN1CCc2c(sc3c2c(=O)n(-c2ccccc2)c2n[nH]c(=S)n32)C1 | 2.1 | -15.9 | 2.6 | -8.6% | 6.2
COc1ccc(-c2csc3ncnc(NCCCO)c23)cc1 | -0.9 | x | -1.6 | x | x

High-throughput results (PubChem BioAssay)
